Screening results deposited in PubChem by SRMLSC.
H5N1 antiviral – MDCK cell protection from H5N1 avian flu | cytopathic effect, luminescence, 72 h; stronger effect = higher value; no value below 0 was filed and about half of the inactive calls have no number; reference of the scale not given here | inhibition, % at 50 µM | 96,000 tested, 0.07% active; in the data active = inhibition above about 25%
Starred values were filed as active, the others as inactive; i = inactive. A portion of the library (hit frequency here may not be typical).

molecule,H5N1 antiviral
COc1ccc(C(=O)COC(=O)Cn2nnc3ccccc32)cc1Br,1.2
CCOC(=O)N1CCN(c2c(F)cc3[nH]c(=S)[nH]c3c2Br)CC1,0.5
O=C(Oc1cc2oc(=O)cc(-c3ccccc3)c2cc1Cl)C1CCCCC1,0.6
O=C(O)Cc1ccc(C(=O)c2cccs2)s1,i
CN1CSC(=S)N(C)C1,1.9
COC(=O)Cn1c(=O)sc2ccccc21,0.4
COc1cccc(C(=O)Nc2nc3c(c(=O)[nH]2)CCCC3)c1,1.4
O=C(NC1CC1)c1ccc2c(c1)ncn2C1CCCC1,i
CCC(C)(C)n1nnnc1C(c1cccnc1)N1CCCc2ccccc21 (configuration not stated),1.6
CCN1C(=O)c2ccccc2S(=O)c2ccc(C(=O)NC3CC3)cc21 (configuration not stated),1.2
O=C(NC1CCCC1)c1ccc(Br)s1,1.7
O=C(NCc1ccco1)C1CCCN(S(=O)(=O)c2cccc3nsnc23)C1 (configuration not stated),0.7
COc1ccc(S(=O)(=O)N2CCC(C(=O)N3CCOCC3)CC2)cc1OC,1.1
Cc1c(Br)cc(-c2nnco2)cc1Br,0.1
Cc1cccc(C)c1N1C(=O)C2ON(c3ccccc3)C(c3ccncc3)C2C1=O (configuration not stated),0.1
COc1ccc(-c2nc3ccccc3c(=O)n2CCCn2ccnc2)cc1,i
Cc1ccc(C2C(C#N)=C(N)Oc3cc4c(cc32)OCO4)cc1 (configuration not stated),i
CC(=O)NC1C(=O)N=C(SCC(=O)NCc2ccccc2)NC1=O (configuration not stated),i
COc1cc(NC2=CC(=O)CC(C)(C)C2)cc(OC)c1OC,0.1
Cc1onc(-c2ccccc2Cl)c1C(=O)Nc1ccc(CN2CCCC2)cc1,i

(listing goes on)
molecule,H5N1 antiviral
COc1ccc2[nH]c(=O)c(CN(CCO)C(=O)c3cccs3)cc2c1,0.8
CCCc1ccc(Oc2cn[nH]c2-c2ccc(O)cc2O)cc1,3.2
CN1C(=O)/C(=C\c2ccccc2)Sc2ccc(C(=O)N3CCN(c4ccccn4)CC3)cc21,0.8
CCOc1c2ccc(C(=O)NCCc3cccs3)cc2nn1CC,i
COc1cc2[nH]c(=O)n3nc(-c4ccccc4)nc3c2cc1OC,1.7
CCOC(=O)Cn1c(CN2CCN(c3cccc(Cl)c3)CC2)nc2c1c(=O)[nH]c(=O)n2C,0.7
O=C(COc1ncnc2ccccc12)NCCCN1CCCC1=O,i
CCOC(=O)c1c(C)oc2ccc(O)c(CN3CCCCC3)c12,0.2
O=C(Nc1ccc2c(c1)OCCO2)c1ccc(CN2CCOCC2)cc1,1.1
O=C(Nc1ccccc1)Nc1nncs1,i
COc1ccc(-c2cc(-c3cccs3)c(C#N)c(SCC(=O)NCc3ccco3)n2)cc1,i
Cc1noc(C)c1CSc1ncnc2sc(C)c(C)c12,i
Cc1occc(=O)c1OC(=O)Nc1ccccc1,0.9
O=C(c1ccc(Cl)s1)N1CCN(c2ccccc2)CC1,2.5
CCC(C)C1C(C#N)=C(N)Oc2n[nH]c(C)c21 (configuration not stated),0.9
CCC1(CC)Cc2ccccc2C(CC(=O)N2CCOCC2)=N1,0.3
Cc1ccc(C)c(OCC(=O)Nn2c(C)nc3ccccc3c2=O)c1,i
O=C(N/N=C/c1c[nH]c2ccccc12)c1ccn(Cc2ccc(Cl)cc2Cl)n1,1.8
O=C(CSc1nc2ccccc2c(=O)n1-c1ccccc1)NCc1ccco1,i
CCN1CCN(C(c2ccc(F)cc2)c2nnnn2Cc2cccs2)CC1 (configuration not stated),3.0

3 records drawn at random from those above:
molecule,H5N1 antiviral
COc1cc(NC2=CC(=O)CC(C)(C)C2)cc(OC)c1OC,0.1
O=C(CSc1nc2ccccc2c(=O)n1-c1ccccc1)NCc1ccco1,i
Cc1c(Br)cc(-c2nnco2)cc1Br,0.1

Later entries.
molecule,H5N1 antiviral
CCOC(=O)COc1cc(Br)c(/C=N/Nc2ccccc2)cc1OC,i
Cc1cc(NC(=O)CSc2nnc(-c3ccoc3C)o2)no1,0.9
CC(=NCCCN1CCCCC1)c1c(O)n(Cc2ccccc2)c(=O)[nH]c1=O,0.5
CCOC(=O)c1c(C)c(C(=O)N(C)C2CCCCC2)c(C)n1C,1.2
CCn1c(=N)n(CCOc2ccc(OC)cc2)c2ccccc21,i
CC(=O)N1CCN(c2ccc(NC(=O)c3cccc(OCc4ccccc4)c3)cc2)CC1,i
O=C(c1ccccc1F)N1CCN(c2ccccc2F)CC1,1.0
CCOC(=O)c1ccccc1NC(=O)c1ccc(NS(C)(=O)=O)cc1,i
CC(n1cnnn1)C12CC3CC(CC(C3)C1)C2 (configuration not stated),0.1
Cc1cccc(/N=C/c2c(O)c3ccccc3oc2=O)n1,0.5
c1ccc(COc2ccc(OCCn3cncn3)cc2)cc1,0.3
CC1=CC(c2ccc(Cl)cc2)n2nc(NC(=O)c3ccccc3)nc2N1 (configuration not stated),0.5
Cc1nnc(SCC(=O)NCc2ccco2)[nH]c1=O,i
O=C(Cn1nnc(-c2ccccc2F)n1)Nc1ccc2c(c1)OCO2,i
CCN(C(=O)CCc1nc(-c2ccccc2F)no1)c1cc(OC)ccc1OC,0.4
CCOC(=O)N1CCN(c2ccc(C(=O)CC)cc2F)CC1,1.2
CC(C)NC(=O)CCNS(=O)(=O)c1ccc(Br)cc1,0.8
CCOC(=O)N1CCN(C(=O)Nc2ccc3nc(C)sc3c2)CC1,0.4
Cc1cc(Cl)c(S(=O)(=O)N2CCSCC2)cc1OCC(=O)NC1CCCCC1,2.9
CC1Sc2ccccc2N(CC(=O)N(C(C)C)C(C)C)C1=O (configuration not stated),0.4

5 compounds out of the list, arranged by molecular weight, largest number first:
molecule,H5N1 antiviral
CCN(C(=O)CCc1nc(-c2ccccc2F)no1)c1cc(OC)ccc1OC,0.4
CC1=CC(c2ccc(Cl)cc2)n2nc(NC(=O)c3ccccc3)nc2N1 (configuration not stated),0.5
CCOC(=O)N1CCN(C(=O)Nc2ccc3nc(C)sc3c2)CC1,0.4
Cc1cc(NC(=O)CSc2nnc(-c3ccoc3C)o2)no1,0.9
CCn1c(=N)n(CCOc2ccc(OC)cc2)c2ccccc21,i

(continued)
molecule,H5N1 antiviral
N#CC1=C(N)OC2=C(C(=O)CCC2)C12CCC1(CC2)OCCO1,i
COc1ccccc1N1CC(C(=O)OCC(=O)c2ccc(F)cc2)CC1=O (configuration not stated),i
CCOC(=O)N1CCN(S(=O)(=O)c2ccc(C(=O)Nc3sc4c(c3C#N)CCC4)cc2)CC1,i
CC1CC(C)CN(CCCNC(=O)Cc2c(C(=O)O)n(C)c3ccccc23)C1 (configuration not stated),2.4
CCOc1ccc2[nH]c(=O)c(CN(Cc3nnnn3Cc3ccccc3)CC3CCCO3)cc2c1 (configuration not stated),i
O=C(O)CCCNS(=O)(=O)c1cccs1,i
COC(=O)c1sccc1NC(=O)CSc1ccccc1NS(=O)(=O)c1ccc(Cl)cc1,1.0
COc1ccc(CNC(=O)CCn2c(=O)oc3ccccc32)cc1,0.3
C=CCn1c2ccccc2c2nnc(SCC(=O)Nc3c(C)n(C)n(-c4ccccc4)c3=O)nc21,0.3
CCOP(=O)(c1ccc(N(C)C)cc1)C(O)c1ccccc1OC (configuration not stated),0.5
CC(C)n1c(N2CCN(C(=O)Nc3ccccc3)CC2)nc2ccccc21,i
COc1ccc2nc(C)cc(C(=O)O)c2c1,0.5
CCOC(=O)N1CCC(Nc2c(NCCCN(CC)CC)c(=O)c2=O)CC1,0.2
COc1ccccc1-c1nnn(CC#N)n1,i
O=C(O)C1C2C=CC(CC2)C1C(=O)O (configuration not stated),0.5
Nc1nc2ccccc2n1CCN1CCCC1,1.6
O=C(COC(=O)c1ccco1)Nc1ccccc1,i
CCN(C(=O)Cn1c(=O)n2nc(CCn3nc(C)cc3C)nc2c2ccccc21)c1cccc(C)c1,0.8
CCc1ccc(OCCCC(=O)Nc2ccc(N3CCCCC3)cc2)cc1,0.1
CN1C(=O)C(CC(=O)Nc2ccc3c(c2)Cc2ccccc2-3)N(C)C1=O (configuration not stated),i

Continued.
molecule,H5N1 antiviral
COc1ccccc1NC(=O)CSc1nnnn1-c1ccc2c(c1)OCO2,2.4
CCC(=O)Nc1c(-c2cccs2)c(=O)c2ccccc2n1C,0.2
O=C(c1cccs1)c1cn(Cc2ccccc2Cl)c2ccccc12,0.5
CCOc1ccc(OCc2ccc(C(=O)Nc3cccc(C)n3)o2)cc1,i
CCc1cc2c3c(c(=O)oc2cc1O)CCCC3,i
O=C(Nc1ccc2c(c1)CCC2)c1cc2ccccc2o1,i
CC(=O)c1noc(C)c1C(=O)Nc1nccs1,0.2
COc1ccccc1Nc1nc2c(s1)CCC2,0.5
Cc1cc(=O)n(CCCO)c(O)c1C#N,i
O=C(NCc1ccccn1)c1ccc(Cl)s1,1.4
S=C(Nc1cccc2ccccc12)NN1CCOCC1,0.3
O=C(CC1COc2ccccc2O1)NCCc1ccccc1 (configuration not stated),i
O=C(/C=C/c1cccc(C(F)(F)F)c1)Nc1cccc(C(F)(F)F)c1,i
Cc1cc(C(=O)CSc2nnc(-c3ccc(OC(F)F)cc3)o2)c(C)n1Cc1cccs1,1.4
CCCCOc1ccc(C(=O)N2CCCCCC2)cc1,i
O=C(Nc1ccccc1-c1ccccc1)NC1CCN(CC(=O)N2CCOCC2)CC1,i
CSc1ccc(N2C(=O)NC3(CCCCC3)C2=O)cc1,0.8
COc1ccc(C2C(C#N)=C(N)OC3=C2C(=O)CCC3)c(OC)c1OC (configuration not stated),i
O=C1CCCC(O)=C1C1NCCc2ccccc21 (configuration not stated),1.8
CSc1nc(-c2ccccc2)nn1C(=O)c1ccc(Cl)cc1,i

(next part)
molecule,H5N1 antiviral
Cc1cc(C)n(-c2nc3sc4c(c3c(=O)[nH]2)CCCC4)n1,i
CCOC(=O)N1CCN(C(=O)C(CC(C)C)NC(=O)C2CCCCC2)CC1 (configuration not stated),0.6
O=C(O)/C=C/c1cn(-c2ncc(C(F)(F)F)cc2Cl)c2ccccc12,i
COc1ccc2oc(=O)c(C(=O)N3CCN(c4ccccc4F)CC3)cc2c1,0.1
COc1ccccc1C/C(N)=N/OC(=O)COc1ccccc1C,1.1
CC(C)CCOC(=O)C1C(c2ccccc2)C(C(=O)O)C1c1ccccc1 (configuration not stated),i
Cc1cc(=O)oc2n[nH]c(-c3ccccc3)c12,2.4
Cn1cc(C(=O)Nc2ccc(F)c(F)c2)cn1,0.5
C/C(=C1/SC(N2CC(C)OC(C)C2)=NC1=O)c1ccccc1 (configuration not stated),1.4
O=C(O)c1cc2c(ccc3ccccc32)o1,0.1
Cn1c(=O)c2c(ncn2CC(=O)N2CCN(c3cccc(Cl)c3)CC2)n(C)c1=O,0.4
O=C(COc1ccccc1)Nc1cccc2nsnc12,0.3
COc1ccc(C(=O)Oc2ccc3oc(=O)sc3c2)cc1,i
O=C(c1cnn2ccccc12)N1CCc2ccccc21,2.4
O=C(O)c1cccc2c1C(=O)N(C1CCCCC1)C2,1.6
COC(=O)CN(c1ccc(C)c(Cl)c1)S(C)(=O)=O,0.6
CC(C)(C)C1CCc2onc(C(=O)Nc3ccc(F)cc3F)c2C1 (configuration not stated),i
CCCOc1ccc(C(CC(=O)O)NC(=O)C23CC4CC(CC(C4)C2)C3)cc1 (configuration not stated),1.4
Cc1ccc2c(c1)Sc1ccccc1CC2=O,i
COc1cnc(-c2ccccn2)nc1Sc1ccccc1Cl,5.1

Continuation.
molecule,H5N1 antiviral
CC(=O)N1CC=C2C(C#N)=C(N)C(C#N)(C#N)C(C)C2C1 (configuration not stated),i
CC(C)C(=O)Nc1cccc(-c2cn3ccsc3n2)c1,i
CCCN1CCN(C(=O)CCCNC(=O)Cn2cnc3sc(C)c(C)c3c2=O)CC1,1.9
OC1CCCN(Cc2c3ccccc3cc3ccccc23)C1 (configuration not stated),i
CN(C)c1ccc(NC(=O)CN2CCN(CC(=O)Nc3ccc(F)cc3)CC2)cc1,i
CCOC(=O)CSc1nnc(C2CCCCC2)n1C,i
O=C(CSc1n[nH]c(-c2cccnc2)n1)Nc1ccnc2ccccc12,1.1
CN(c1ccc(C(=O)N2CCN(Cc3ccc4c(c3)OCO4)CC2)cc1)S(=O)(=O)c1ccccc1,i
CN(C)c1ccc(C(c2nnnn2C(C)(C)C)N2CCN(C(=O)c3ccco3)CC2)cc1 (configuration not stated),0.3
CCc1nnc(NC(=O)[C@@H](NC(=O)c2cccc(S(=O)(=O)N3CCOCC3)c2)C(C)C)s1,i
CCOC(=O)NCc1ccc2c(c1)cc(C)n2C,0.7
COc1ccc(OC)c(NS(=O)(=O)c2cccs2)c1,0.5
Cc1cc(C)n(/N=C/c2cccc(O)c2)c(=O)c1C(N)=O,0.6
O=C(NN=C1C2CC3CC(C2)CC1C3)c1cccs1,1.5
CCNc1nc(N)nc(Oc2ccc(OCc3ccccc3)nn2)n1,1.1
COc1ccccc1-c1nnc(SCC(=O)Nc2ccc(Cl)cc2Cl)o1,i
CCCCCc1nc(N)c(C#N)c(-c2ccco2)c1CCCC,i
COC(=O)Cn1cnc2sc(C)c(S(=O)(=O)N3CCN(c4ccccc4OC)CC3)c2c1=O,0.5
COc1ccc(CCN(Cc2cc3cccc(C)c3[nH]c2=O)C(=O)N2CCCC2)cc1OC,i
